Assay outcomes deposited in PubChem by several laboratories.
HSV augment – increases HSV replication in cells; HSV replication augmentation in cells, fold increase; maximum fold increase; 220,000 tested, 0.005% active;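 active = peak rise of 1.5-fold or more in the series; tested in PC3 cells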;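 also: first round at 10 µM; read as green reporter fluorescence; hits show the peak of a series up to 25 µM; 1 = signal of infected wells without compound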
RGS16-Gao HTS – modulates binding between human RGS16 and Galphao; bead-based flow cytometry RGS16-Galphao binding, fluorescence; actives lie on both sides; binding response (% of control), % at 10 µM; 220,000 tested, 0.38% active; AID 1441;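 active = below 25% or above 175%, edge rows of some plates excepted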;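 also: Galphao activated by GDP with aluminum fluoride before binding; 100% = wells without compound and 0% = beads without RGS; some results beyond the cut were filed as inactive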
Insulin prom inh – TRM-6 insulin promoter activity inhibition; TRM-6 cells (human fetal islet line), insulin promoter-eGFP reporter, imaging; reporter expression induced with tamoxifen; inhibition, % at 2 µM; 130,000 tested, 0.9% active;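 active = inhibition above the mean plus 3 SD, with well images judged a real hit on visual review, cut at about 60% in these data, passing the limit was not always enough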
PKD1 inh – PKD1 (human) kinase inhibition; Q15139; PKD1 kinase fluorescence polarization assay; inhibition, %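 (about 10 µM by stock and volumes)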; 200,000 tested, 0.056% active;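 active = inhibition of 50% or more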;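 also: controls were vehicle for no effect and a reference inhibitor for full effect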
Target sequence (Q15139 whole entry, looked up): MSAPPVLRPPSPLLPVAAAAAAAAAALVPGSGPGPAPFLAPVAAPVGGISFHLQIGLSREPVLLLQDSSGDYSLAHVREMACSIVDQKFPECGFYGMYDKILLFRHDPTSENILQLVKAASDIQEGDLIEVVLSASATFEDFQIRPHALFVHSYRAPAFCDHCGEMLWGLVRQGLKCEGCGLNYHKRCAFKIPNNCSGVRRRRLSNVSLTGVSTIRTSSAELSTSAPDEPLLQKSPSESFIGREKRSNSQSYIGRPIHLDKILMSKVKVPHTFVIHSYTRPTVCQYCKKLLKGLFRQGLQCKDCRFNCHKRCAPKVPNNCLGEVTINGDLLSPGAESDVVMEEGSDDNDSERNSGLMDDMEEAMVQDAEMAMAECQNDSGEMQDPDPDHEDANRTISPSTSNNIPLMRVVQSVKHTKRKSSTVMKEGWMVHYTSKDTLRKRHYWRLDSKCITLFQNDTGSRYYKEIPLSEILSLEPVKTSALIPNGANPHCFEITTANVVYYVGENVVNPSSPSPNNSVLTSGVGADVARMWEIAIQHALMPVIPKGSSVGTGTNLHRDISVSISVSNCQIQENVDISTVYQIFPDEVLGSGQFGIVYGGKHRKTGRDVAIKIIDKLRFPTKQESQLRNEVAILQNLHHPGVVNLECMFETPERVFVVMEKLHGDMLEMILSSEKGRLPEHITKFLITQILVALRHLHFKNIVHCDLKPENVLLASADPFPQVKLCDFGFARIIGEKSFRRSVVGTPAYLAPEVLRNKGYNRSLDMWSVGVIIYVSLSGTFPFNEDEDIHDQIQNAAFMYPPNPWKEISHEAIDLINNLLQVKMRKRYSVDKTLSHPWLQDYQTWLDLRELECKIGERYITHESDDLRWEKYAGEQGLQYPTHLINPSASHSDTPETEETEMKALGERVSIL
GALR2 agonist – GALR2 (human) receptor agonism; 140,000 tested, 0.48% active; AID 803; GALR2-expressing cells, agonist activation read-out; activation, %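 (tested at 5 µM)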;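 active = above mean plus 3 SD of all compounds, about 5% in these data, not always enough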;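 also: 0% = vehicle buffer wells and 100% = reference agonist at full effect; tested in CHO reporter cells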
Insulin prom inh cell count – recorded beside Insulin prom inh, whose call it bears; normalized cell count, %; measured here: cell count, toxicity; reference of the scale not given here;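 cells exposed to compound for 48 h; stained nuclei by imaging scaled within each plate; lower means fewer cells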
HSV augment primary fold – also measured in HSV augment; calls as there; fold increase; compound at 10 µM; measured here: primary screen fold increase 10 uM; tested in PC3 cells;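 GFP signal in the first replicate; 1 = infected wells without compound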
Numbers without * were called inactive; i = inactive; · = no result given. Not a hit list. Share with any hit: about 1.3%.

SMILES	HSV augment	HSV augment primary fold	RGS16-Gao HTS	Insulin prom inh	Insulin prom inh cell count	PKD1 inh	GALR2 agonist
O=C(CC(NCc1ccccn1)C(=O)O)Nc1ccccc1Cl (stereo not given)	i	1.01	109.2	18.2	126.9	-1.7	·
O=C(CNCC1CCCO1)Nc1ccccc1N1CCOCC1 (stereo not given)	i	0.95	102.3	·	·	-12.5	-0.6
CC(Oc1ccc(Br)cc1)C(=O)N1CCc2ccccc21 (stereo not given)	i	0.93	106.2	-311.4	83.2	-1.1	0.2
Cc1nn(-c2ccccc2)c(Cl)c1/C=C/C(=O)c1ccccc1	i	0.94	102.5	8.1	78.3	-7.8	-2.4
O=C(CCSc1ccccc1)Nc1nc2c(s1)COc1ccccc1-2	i	1.03	107.0	·	·	1.8	-1.1
CC(C)(C)OC(=O)N1CCNc2ccccc2C1	i	0.95	105.8	-16.7	115.5	6.9	0.1
Cc1ccc(-c2nnn(C(C)C(=O)N3c4ccccc4CCc4ccccc43)n2)cc1 (stereo not given)	i	0.83	108.8	-157.1	103.9	7.2	-2.0
Cn1c(CNC(=O)c2ccccc2)nnc1SCC(=O)N1CCN(c2ccccc2)CC1	i	0.95	108.2	-258.1	39.0	-1.7	-1.2
COC(=O)c1cc(OC)c(OC)cc1NCC(=O)Nc1cccc(C(F)(F)F)c1	i	0.84	47.6	-17.9	73.3	-15.7	-0.4
CC(C)(C)c1cc(NC(=O)COC(=O)C2CC2)n(-c2ccccc2)n1	i	1.03	97.5	7.1	56.0	-3.2	-4.6
Cc1ccc(S(=O)(=O)n2cnc3ccccc32)cc1	i	0.96	110.9	13.3	65.2	-4.2	-1.8
c1ccc(-n2c(-c3cccs3)nc3nc4ccccc4nc32)cc1	i	0.9	111.9	·	·	1.1	0.3
N#Cc1c(NC(=O)/C=C/c2ccco2)sc2c1CCCC2	·	·	97.5	·	·	-3.0	5.9*
COc1cccc(CN(C)Cc2nc3cc(C(F)(F)F)ccc3c(=O)[nH]2)c1	i	1.02	99.2	·	·	·	·
Cc1ccc(C)c(NC(=S)N(Cc2ccco2)C(C)c2cccs2)c1 (stereo not given)	i	0.89	101.6	50.0	80.2	3.2	·
CN(CC(=O)NCCc1ccc(S(N)(=O)=O)cc1)c1ccccc1	i	0.82	101.2	·	·	4.1	·
O=C(NCCCNc1ccc(C(F)(F)F)cc1[N+](=O)[O-])c1cc(F)c(F)cc1Cl	i	0.84	105.7	11.5	139.5	1.7	-4.5
CCOC(=O)c1sc(=S)n(-c2ccc(OC)cc2)c1C	i	1.02	103.0	·	·	·	·
Oc1ccc(N2CCN(C(=S)NCCc3ccccc3)CC2)cc1	i	0.79	95.0	6.5	90.1	-11.6	-1.3
Cc1nc(SCC(O)CCl)c([N+](=O)[O-])[nH]1 (stereo not given)	i	0.85	103.8	-39.5	96.7	-1.0	-1.7
CCc1cc2c(=O)n(CC(=O)NCCc3ccc(OC)c(OC)c3)cnc2s1	i	1.01	74.8	·	·	2.4	·
S=C(N/N=C/c1ccc2ncccc2c1)Nc1cccnc1	i	0.71	102.6	26.3	99.2	1.1	·
COc1ccc(-n2nc3c(c2NC(=O)c2cc(Br)ccc2Cl)CS(=O)C3)cc1 (stereo not given)	i	1.08	101.5	·	·	-3.5	-1.6
O=C(NCCCCCCNC(=O)N1CCCCCC1)N1CCCCCC1	i	1.29	103.8	-428.6	69.8	-9.7	-1.4
COCCN1C(=O)c2ccccc2C(C(=O)NCc2ccco2)C1c1c[nH]c2ccccc12 (stereo not given)	i	0.98	99.2	-108.3	50.8	-7.0	-2.0
O=S(=O)(NC1=NCCCCC1)c1ccc(F)cc1	i	1.04	101.1	·	·	·	·
O=C(O)C1CCC(=O)N1Cc1ccc(F)cc1 (stereo not given)	i	0.68	102.6	25.8	114.7	-11.9	-2.1
C=CCSC1=NNC(c2ccc(C(C)(C)C)cc2)=NN1	i	0.85	105.5	·	·	·	·
Cc1c(N=C/C=C/c2ccccc2)cnn1C	i	0.97	19.4	-35.5	96.2	-8.7	-1.3
O=C(NC(=S)N(CC1CCC1)CC1CCCO1)c1cccc([N+](=O)[O-])c1 (stereo not given)	i	0.91	100.9	·	·	-2.8	·
CCOc1ccccc1NC(=O)C(NCCN(C)C)c1ccccc1 (stereo not given)	i	1.01	110.4	·	·	-11.4	·
COCCCn1nnnc1SCC(=O)N1CCN(C(=O)c2ccco2)CC1	i	1.08	105.6	·	·	-5.5	·
Cn1c(SCC#N)nnc1-c1ccc2c(c1)OCO2	i	0.82	101.0	43.8	119.2	-10.9	0.5
COc1cc(S(=O)(=O)NCc2ccccc2)ccc1F	i	0.84	104.3	37.5	124.6	-4.5	-0.8
Cc1ccc(-c2nn(C)c(=O)c3ccccc23)cc1CNC(=O)/C=C/c1ccccc1	i	1	101.2	40.5	69.2	-14.7	-0.2
Cc1ccc(-c2nn(-c3ccccc3)cc2C(N)=O)o1	i	1.14	100.0	·	·	3.2	·
COc1ccc(OC)c(NC(=O)CSc2nnnn2-c2ccccc2F)c1	i	1.05	100.3	-242.3	109.7	4.2	-3.6
CSc1ncc(CN2CCN(CC=C(C)C)C(CCO)C2)cn1 (stereo not given)	i	1.04	100.0	·	·	0.7	·
O=C(COC(=O)CCC(=O)c1cccs1)Nc1ncc(Cl)cc1Cl	i	1.36	98.3	·	·	-11.3	-1.9
COc1ccc(C(c2nnnn2C(C)(C)C)N2CCN(c3nc4ccccc4s3)CC2)cc1 (stereo not given)	i	0.9	100.7	-11.5	125.9	-1.2	-0.1

Already shown: an excerpt of the list.
SMILES	HSV augment	HSV augment primary fold	RGS16-Gao HTS	Insulin prom inh	Insulin prom inh cell count	PKD1 inh	GALR2 agonist
CCc1cc2c(=O)n(CC(=O)NCCc3ccc(OC)c(OC)c3)cnc2s1	i	1.01	74.8	·	·	2.4	·
S=C(N/N=C/c1ccc2ncccc2c1)Nc1cccnc1	i	0.71	102.6	26.3	99.2	1.1	·
COc1ccc(-n2nc3c(c2NC(=O)c2cc(Br)ccc2Cl)CS(=O)C3)cc1 (stereo not given)	i	1.08	101.5	·	·	-3.5	-1.6
O=C(NCCCCCCNC(=O)N1CCCCCC1)N1CCCCCC1	i	1.29	103.8	-428.6	69.8	-9.7	-1.4
COCCN1C(=O)c2ccccc2C(C(=O)NCc2ccco2)C1c1c[nH]c2ccccc12 (stereo not given)	i	0.98	99.2	-108.3	50.8	-7.0	-2.0

The list goes on:
SMILES	HSV augment	HSV augment primary fold	RGS16-Gao HTS	Insulin prom inh	Insulin prom inh cell count	PKD1 inh	GALR2 agonist
Cc1c(C(=O)N2CC3(CC(c4cccc(NC(=O)[C@H]5CCC(=O)N5)c4)=NO3)C[C@@H]2C(N)=O)cc([N+](=O)[O-])cc1[N+](=O)[O-] (stereo not given in full)	i	1.11	102.5	·	·	·	·
CCCCc1nnc2c(N(C)S(=O)(=O)c3ccccc3)nc3ccccc3n12	i	1.06	100.8	·	·	·	·
CC(C)CCc1noc(CN(C)CCC2CCOCC2)n1	i	0.87	96.3	·	·	·	·
Cn1c(CCNC(=O)C(C)(C)C)nc2ccccc21	i	0.92	101.1	·	·	-5.2	-1.2
CC(C)N1C(=O)CCC1C(=O)O (stereo not given)	i	1.01	106.5	-33.3	35.1	-13.7	-4.1
COc1ccc(N2CCN(Cc3nnnn3C3CCCCC3)CC2)cc1	i	0.96	108.8	·	·	-0.4	·
CC(O)Cc1cn([C@@H](CCCCNC(=O)OC(C)(C)C)C(=O)N2CCN(C(=O)OC(C)(C)C)CC2)nn1 (stereo not given in full)	i	1.03	98.2	·	·	-7.2	·
COc1cc(C(=O)N2CCN(C(=O)c3ccco3)CC2)c([N+](=O)[O-])cc1OC	i	0.92	97.3	·	·	-3.3	·
Cc1cc(C)n2nc(C(=O)N/N=C/C=C/c3ccccc3)nc2n1	i	1.05	104.4	·	·	·	·
C/C(=N\NC(N)=S)c1cccnc1	i	1.03	101.7	·	·	·	·
Cc1ccc2cc(/C=N/NC(=O)c3ccc(F)cc3)c(Cl)nc2c1	i	0.86	102.0	56.2	139.2	6.4	·
O=C(Nc1cccc2ccccc12)N1CCN(c2ccc(F)cc2)CC1	i	1.02	104.6	·	·	2.6	-0.2
CN(C)CCCn1c(NCc2ccc3c(c2)OCO3)nc2ccccc21	i	1.01	105.0	7.1	47.5	-12.0	-0.6
N#CCSc1nc2ccccc2c(=O)n1CCCC(=O)NCc1ccco1	i	0.89	96.5	-20.0	140.3	0.4	·
Cc1nc(NC(=O)c2cccc(Cl)c2)sc1-c1csc(Nc2cccc(Cl)c2)n1	i	1.01	113.0	·	·	-4.9	-1.8
COC(=O)C1=C(C)N(Cc2ccc(OC)c(OC)c2)C(=O)C1	i	1	102.1	18.2	111.2	0.1	-2.0
CN(C)CCNC(CC(=O)Nc1ccc(Cl)c(Cl)c1)C(=O)O (stereo not given)	·	·	·	·	·	-15.9	-2.2
O=C1c2ccccc2C(Nc2ccc(F)cc2F)N1CCN1CCOCC1 (stereo not given)	i	0.93	109.6	·	·	-9.4	-0.8
CC(=O)OCC1OC(c2ccccc2)C(OC(C)=O)C(OC(C)=O)C1OC(C)=O (stereo not given)	i	1.22	102.8	4.2	77.9	-4.4	-0.2
CCOC(=O)C(=O)C1C(=O)Nc2ccccc21 (stereo not given)	i	1.02	104.0	·	·	·	·
CC(=O)OC1CC[C@@]2(C)C(CCC3C2CC(=O)[C@@]2(C)C3CC3CC(C)=CC(=O)C32)C1 (stereo not given in full)	i	0.94	100.1	·	·	·	·
O=[N+]([O-])c1cccc(C2Nc3cccc4cccc(c34)N2)c1	i	0.98	94.9	21.4	134.3	-4.3	0.1
CCOC(=O)c1ccc(COC(=O)CNC(=O)CNC(=O)c2ccc(OC)cc2)o1	i	1.02	133.9	-312.5	127.7	-1.3	5.7
COc1ccc(-n2nnnc2SCC(=O)Nc2nnn(C)n2)cc1	i	0.9	98.7	30.4	161.2	-3.7	-1.5
CCOc1ccc(-n2nc3ccc(NC(=O)c4ccc5c(c4)OCCO5)cc3n2)cc1	i	0.71	106.5	23.1	108.2	-7.5	-1.8
C=CCC(C(=O)OC)(C(=O)OC)c1ccccc1[N+](=O)[O-]	i	0.98	99.0	-25.0	140.8	4.5	·
CC(=O)c1cccc(NC(=O)CC2S/C(=N/N=C/c3ccccc3)NC2=O)c1 (stereo not given)	i	0.95	89.2	·	·	10.5	·
O=C(CNC(=O)Cn1ccc2ccccc2c1=O)NCCCN1CCCCCC1	i	0.89	105.0	-3.9	82.1	-7.0	0.3
Cc1ccc(NC(=O)CC2S/C(=N/N=C3/NC(=O)CS3)NC2=O)cc1 (stereo not given)	i	1.04	107.4	·	·	-2.1	·
NNC(=O)c1ccc2nc(-c3ccc(Br)cc3)cn2c1	i	0.89	96.6	33.3	126.2	-8.5	·
CN(C)c1ncc(S(=O)(=O)c2ccccc2)c(-c2ccccc2Cl)n1	i	1.13	98.5	·	·	-1.9	-1.9
O=S(=O)(Nc1nc2ccccc2s1)c1ccc(Br)s1	i	0.94	104.5	54.3	158.0	-0.2	-0.3
CCOC(=O)N1CCN(Cc2nc(CC3CC3)no2)CC1	i	1.03	122.1	·	·	5.9	·
COC(=O)CCN1CCc2cc(N=Nc3ccc([N+](=O)[O-])cc3)ccc21	i	0.98	93.7	·	·	·	·
CN(c1ccc(C(=O)NCCSCc2ccco2)cc1)S(C)(=O)=O	i	1.07	103.1	27.6	76.7	-6.3	-1.3
O=C1C=C(c2cccs2)CC(c2cccs2)C1n1cnc([N+](=O)[O-])c1 (stereo not given)	i	1.06	100.1	-29.7	168.9	-12.4	-2.2
CCOc1ccc(C(=O)Nc2ccccc2-c2ccccc2)cc1Cl	i	1.06	·	-2.8	188.5	4.2	-0.5
CC(=O)c1c(C)cc(C)c(CSc2nc(C)cc(=O)[nH]2)c1C	i	1.05	100.2	30.4	119.1	-11.3	-0.2
O=C(NCC1CCCO1)/C(=C\c1cccs1)NC(=O)c1ccccc1 (stereo not given)	i	1.04	111.9	·	·	0.6	·
Cc1ccc2cc(S(=O)(=O)NCCC(=O)O)ccc2c1	i	1.11	104.8	6.7	149.4	0.4	-1.1
COc1ccc(N=C2CCCN2CC(N)=O)cc1	i	0.97	101.0	-6.5	66.2	-0.1	-2.8
